# Calb biofilm kill: mixture kills Candida albicans biofilm cells. C. albicans biofilm persisters + clotrimazole, fluorescence viability; primary screen in compound mixtures of four per well. inhibition, % at 7.6 µM. 0.02% of 120,000 active;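 active = inhibition above 30.3% in the primary screen of four-compound pools, then above 30% when the compound was retested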;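 note: compounds exposed to preformed 24 h biofilms for 48 h; the number belongs to the whole pool; some results filed as inactive read as strong as hits; inactives centre near 12; 0% = biofilm with clotrimazole alone and 100% = kill control; retested singly at about 60 µM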
#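 System: C. albicans CAF4-2 wild-type biofilms; Medium: RPMI/MOPS medium, pH 7.0; Reagent: Clotrimazole, 50 µg/mL; Times: biofilm formation 24 h, compound exposure 48 h, 37 °C; Detection: 2-h Alamar Blue fluorescence, 535/590 nm excitation/emission; Evaluation: percent inhibition of biofilm viability.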
# * marks the source's active call; other numbers are inactive results. The list is partial. The share of hits here may be higher or lower than overall.
canonical_smiles	Calb biofilm kill
CCOc1ccc(C(=O)Nc2cccc3ncccc23)cc1Br	-16
COC(=O)c1ccc(N2C(=O)c3cc(N4CCOCC4)c([N+](=O)[O-])cc3C2=O)cc1	6
O=C(CN(C(=O)Cn1nnc(-c2ccccc2F)n1)c1cnc2ccccc2c1)NCC1CCCO1 (stereo not given)	15
Cc1c(Cl)cccc1NC(=S)NC1CCN(C(C)C)CC1	-3
COC(=O)c1cc(-c2ccc(NC(C)=O)cc2)nc2ccccc12	10
Cn1c(=O)[nH]c(=O)c2c1nc(N/N=C/C(Br)=C/c1ccccc1)n2CCO	13
N#CC1=C(Nc2ccccc2Cl)SC(c2ccccc2O)NC1=O (stereo not given)	-3
CC(C)N1CCC(N2CCN(CCCc3ccccc3)CC2CCO)CC1 (stereo not given)	24
CCOC(=O)C1(Cc2cccc(F)c2)CCN(C(=O)c2ccoc2C)CC1	16
CC1CCN(CCOCCOc2ccccc2-c2ccccc2)CC1	15
O=C(N/N=C/c1cccc(C(F)(F)F)c1)c1ccc(O)cc1	10
Cn1c(=O)oc2cc(S(=O)(=O)N3CCc4ccccc43)ccc21	18
Cc1cccc(S(=O)(=O)Nc2nc3ccccc3nc2NCC2CCCO2)c1 (stereo not given)	10
Cc1cc(C)nc(SCc2cc(=O)c(OC(=O)c3ccc(Cl)c([N+](=O)[O-])c3)co2)n1	21
C=CCNC(=S)NNC(=O)c1cc(O)ccc1O	24
COc1ccc2c(c1)c(CC(=O)OCC(=O)O)c(C)n2C(=O)c1ccc(Cl)cc1	15
O=C(CCCn1c(=O)oc2ccccc21)NC1CCCCCC1	-14
CC(=O)Nc1ccc(NS(=O)(=O)c2ccc(Cl)s2)cc1	15
NC(=O)c1ccc(C(=O)c2ccc([N+](=O)[O-])cc2)cc1	5
N#C/C(=C\c1ccc([N+](=O)[O-])cc1)c1nc(C2CC2)cs1	13
C/C(=N\NC(=O)c1ccc(N2CCCC2=O)cc1)c1ccncc1	28
Cn1cc(SCC(=O)NCc2ccc(F)cc2)c2ccccc21	6
CC(=O)Cc1cc(=O)c2c(C)cc(O)c(C3OC(CO)C(O)C(O)C3O)c2o1 (stereo not given)	21
CC(Oc1cccc(Cl)c1)C(=O)Nc1ccc([N+](=O)[O-])cn1 (stereo not given)	17
O=C(c1ccc([N+](=O)[O-])cc1)N1CCSC1c1ccccc1Cl (stereo not given)	6
Cc1cccc(N2C(=O)c3ccc(C(=O)Nc4c[nH]c(=O)[nH]c4=O)cc3C2=O)c1	7
Nc1cc(OCC(F)(F)F)cc(OCC(F)(F)F)c1	14
O=C(CSc1nc2ccccc2[nH]1)Nc1ccc2c(c1)CCC2	11
CC(=O)OC[C@H]1O[C@H](CCO/N=C(\C)CCN2CCCc3nc(C)c(C)cc32)C=C[C@@H]1OC(C)=O	2
CCC(C(=O)NC1CCCC1)N(Cc1cccs1)C(=O)Cn1nnc(-c2ccc(OC)c(OC)c2)n1 (stereo not given)	20
CC(C)N(C(=O)COC(=O)[C@@H]1CC(O)CN1S(=O)(=O)c1ccc(C(C)(C)C)cc1)C(C)C (stereo not given in full)	13
Cc1ccc2c(CC(=O)NC3CCCc4ccccc43)coc2c1 (stereo not given)	3
CNc1nc(N)c([N+](=O)[O-])c(Nc2cccc(F)c2)n1	12
CCCCCOc1ccc(NC(=O)CSc2cccc3cccnc23)cc1	10
Cc1noc(NS(=O)(=O)c2ccc(N/C=C\C(=O)c3cccs3)cc2)c1C	8
C/C(=N\NC(=S)NC1CCCCC1)c1ccc(O)cc1	7
CCOc1ccc(N2C(=O)CC(N(CCc3ccc(OC)cc3)C(=O)/C=C/C(=O)O)C2=O)cc1 (stereo not given)	-7
COc1ccc2nc(SCC(=O)NCC(F)(F)F)[nH]c2c1	19
COCCCNC(=O)CN1C(=O)/C(=C\c2ccc(C)cc2)Sc2ccccc21	20
CN(NC(=O)C1CC(=O)N(c2ccccc2)C1)C1=NS(=O)(=O)c2ccccc21 (stereo not given)	7
COCCNC(=O)/C(C#N)=C/c1ccc(OCc2ccc(F)cc2)cc1	15
COC(=O)C1=C(C)NC(=S)N(C(C)=O)C1c1ccc(OC)c(OC)c1 (stereo not given)	13
COc1ccc(CNC(=O)c2cccc(S(=O)(=O)N3CCN(C)CC3)c2)cc1	4
C=CCSc1nc2sc(C)c(C)c2c(=O)n1CC=C	4
CCCn1nnnc1NCc1c(Cl)cccc1Cl	0
CSc1nnc(C(C)(C)C)c(=O)n1/N=C/c1ccccc1	16
O=c1oc2ccccc2c(Nc2ccccc2)c1CN1CCCCC1	18
Cc1ccc2nc(CSc3nnc(Nc4ccccc4F)s3)cc(=O)n2c1	14
COc1cc(CCCN2C(=O)C(=O)NC[C@@H]2CCCCN)cc(OC)c1OC	12
COc1ccc(C(=O)CSc2nc3ccc([N+](=O)[O-])cc3[nH]2)cc1	22
COc1cccc(NC(=O)N2CCN(c3nnnn3-c3ccccc3)CC2)c1	-8
O=C1CC(c2ccccc2Cl)Cc2c1cnn2-c1nc2ccccc2s1 (stereo not given)	8
CC(C)(C)NC(=O)C(c1ccccc1)N(Cc1cccs1)C(=O)c1csnn1 (stereo not given)	-8
CC(C)CNC(=O)CO/N=C/c1ccccc1Cl	8
C=CCSc1nc(=O)n2ccc(C)cc2n1	4
Cc1ccc(OCCOc2ccc(Br)cc2)c([N+](=O)[O-])n1	6

# Later entries
canonical_smiles	Calb biofilm kill
Cc1ccc(CSc2nc3ccccc3c(=O)n2Cc2ccco2)cc1	3
CN(C)C(CNC(=S)Nc1ccccc1)c1cccnc1 (stereo not given)	5
c1ccc(CNc2c3c(nc4ncnn24)CCC3)cc1	27
CCn1cc(C(=O)NCc2ccccc2Cl)cn1	18
COc1ccc(OC(C)C(=O)N2CCCc3ccccc32)cc1 (stereo not given)	-4
CC(OC(=O)c1ccc(Cl)c(S(=O)(=O)Nc2ccc(F)cc2)c1)C(=O)NC(N)=O (stereo not given)	29
O=C(c1cc(F)ccc1F)C1CCCN(C(=O)c2cccs2)C1 (stereo not given)	6
CC(OC(=O)COc1ccccc1[N+](=O)[O-])C(=O)Nc1ccc(N2CCOCC2)cc1 (stereo not given)	5
CCN(C(=O)c1ccc(Cl)cc1[N+](=O)[O-])c1ccccc1C	1
Cc1c(C(=O)Nc2nc3ccccc3[nH]2)cccc1[N+](=O)[O-]	21
COc1ccc(C(=O)/C=C/C(=O)N(Cc2ccc(F)cc2)C(C(=O)NC2CCCCC2)c2ccncc2)c(O)c1 (stereo not given)	15
COc1cccc(/C=C(/C#N)c2ccc(Cl)cc2)c1OCc1cccc(C(=O)O)c1	11
CCCCCc1nnc(NS(C)(=O)=O)s1	13
COc1ccc(-c2cc(CNS(=O)(=O)c3ccc(F)cc3)on2)cc1	18
COc1ccc(CCNC(=O)C2CC3Cn4c(nc5ccccc54)C3N2C)cc1 (stereo not given)	13
CC1(C)CC(=O)c2cc3c(nc2C1)CC(C)(C)CC3=O	4
Cc1sc2nc(CN3CCOCC3)nc(Cl)c2c1C	20
O=C(N/N=C\c1ccc[nH]1)C1COc2ccccc2O1 (stereo not given)	18
Cc1cccc(CSc2nc3[nH]ncc3c(=O)[nH]2)c1	5
COc1ccc(NC(=O)/C(C#N)=C/c2ccc(OCc3ccccc3F)cc2)cc1	7
CC(=O)c1ccc(NS(=O)(=O)c2c(C)cc(C)cc2C)cc1	16
CC(=O)C1=C(C)OC(N)=C(C#N)C1c1cccc2ccccc12 (stereo not given)	10
CSC1=NC(=O)/C(=C\c2cccc3ccccc23)S1	15
N/C(=N\OC(=O)Cc1ccccc1[N+](=O)[O-])c1cccc(Br)c1	8
COc1cccc(C2CCCN2Cc2nc(CCC(C)C)no2)c1 (stereo not given)	10
Cc1ccc(N(CC(=O)NCCc2ccc(F)cc2)S(=O)(=O)c2ccc(Cl)c([N+](=O)[O-])c2)c(C)c1	28
COC(=O)c1c(C)noc1-c1snnc1C	7
O=C(Nc1cccc2ccccc12)N1CCCN(c2c(Cl)cncc2Cl)CC1	20
COc1c(Br)cc([N+](=O)[O-])c(OC)c1C(=O)NC(=O)Nc1cc(Cl)cc(Cl)c1	26
Cc1cc(C)nc(N2CCC(C(=O)NNC(=O)c3ccc(Cl)cc3)CC2)n1	20
Cc1ccc2nc3cc([N+](=O)[O-])cc([N+](=O)[O-])c3cc2c1	22
CCOc1ccc(NC(=O)c2nsc(Cl)c2Cl)cc1	8
CCCNC(=O)Cn1c(=O)n(C)c2ccccc21	16
CCOC(=O)C1(Cc2ccccc2)CCN(Cc2cn(CC(=O)OC)c3ccccc23)CC1	1
CC1CC(C)CN(c2cc3c(cc2[N+](=O)[O-])C(=O)N(c2ccccc2)C3=O)C1 (stereo not given)	8
CCC1CCCCN1C(=S)NC(=O)c1cc(S(=O)(=O)N2CCOCC2)ccc1C (stereo not given)	31
O=[N+]([O-])c1ccc(Oc2ccc(/C=N/O)cc2)nc1	24
O=S(=O)(c1cccc(C(F)(F)F)c1)N1CCN(C(=S)NC2CC2)CC1	9
COc1ccc(C/C(N)=N/OC(=O)c2ccc(Cl)cc2)cc1	11
CC(=O)Nc1cc(NC(C)=O)ncn1	16

# Random excerpt: 3 records from the list.
canonical_smiles	Calb biofilm kill
CC(=O)Nc1cc(NC(C)=O)ncn1	16
CCC1CCCCN1C(=S)NC(=O)c1cc(S(=O)(=O)N2CCOCC2)ccc1C (stereo not given)	31
COc1ccc(C/C(N)=N/OC(=O)c2ccc(Cl)cc2)cc1	11

# As entered above:
# `O=S(=O)(c1cccc(C(F)(F)F)c1)N1CCN(C(=S)NC2CC2)CC1` in Calb biofilm kill reads 9
# `CCC1CCCCN1C(=S)NC(=O)c1cc(S(=O)(=O)N2CCOCC2)ccc1C` (stereo not given) in Calb biofilm kill reads 31
# `O=[N+]([O-])c1ccc(Oc2ccc(/C=N/O)cc2)nc1` in Calb biofilm kill reads 24
# `CCCNC(=O)Cn1c(=O)n(C)c2ccccc21` in Calb biofilm kill reads 16
# `COc1ccc(C/C(N)=N/OC(=O)c2ccc(Cl)cc2)cc1` in Calb biofilm kill reads 11
# `CCOC(=O)C1(Cc2ccccc2)CCN(Cc2cn(CC(=O)OC)c3ccccc23)CC1` in Calb biofilm kill reads 1
# `CC(=O)Nc1cc(NC(C)=O)ncn1` in Calb biofilm kill reads 16

# Remaining list, next part
canonical_smiles	Calb biofilm kill
Cc1cc(/C(N)=N/OC(=O)c2ccccc2Cl)no1	11
Cn1c(O)c(N=NC(=O)c2ccccc2O)c2ccccc21	16
Cc1ccc(CCNC(=O)CCSCc2ccc(Cl)cc2)cc1	9
CCOc1ccc(CN2CCN(Cc3ccon3)CC2CCO)cc1 (stereo not given)	8
Cc1cccc2sc(N(CCCN(C)C)C(=O)c3ccc(Cl)s3)nc12	4
CC1(OC(=O)C2CCCC2)C(=O)C=C2C=C(c3ccsc3)N(C3CC3)C=C2C1=O (stereo not given)	6
COc1cc(/C=N/Nc2nc3c(c(=O)n(C)c(=O)n3C)n2Cc2ccccc2)ccc1OC(=O)c1ccco1	9
O=C(c1cnc2ccccc2n1)N1CCN(c2ccc(C(F)(F)F)cn2)CC1	12
CCc1cccc(CC)c1NC(=O)COC(=O)C1(c2ccc(Cl)cc2)CCCC1	9
CC(O)CNc1nc2sc3c(c2c(=O)n1Cc1ccco1)CCCCC3 (stereo not given)	14
CCOC(=O)c1cccc(C(=O)Nc2nc3ccc(OC)cc3s2)n1	4
CCC1CO/C(=C(\C(Cl)=C(Cl)Cl)[N+](=O)[O-])N1 (stereo not given)	17
COCc1cc(C)nc(SCC[N+](C)(C)CC(=O)Nc2cccc(C)c2)c1C#N	3
O=C(N/N=C\CCc1ccccc1)c1ccco1	10
Cc1c(OC(C(=O)O)c2ccccc2)ccc2c(-c3ccccc3)cc(=O)oc12 (stereo not given)	22
CCn1ncc([N+](=O)[O-])c1C(=O)NC1CCCCC1	23
Cc1ccc(S(=O)(=O)N2CCCCCC2)cc1[N+](=O)[O-]	8
COc1ccc(N2CCN(c3nc4c(c(=O)[nH]c(=O)n4C)n3Cc3cccc(C)c3)CC2)cc1	12
O=C(NS(=O)(=O)Oc1cccc(Cl)c1Cl)OC[C@@H]1CCCN2CCCCC12 (stereo not given in full)	-9
CCc1ccc(NC(=O)CSCCN2C(=O)c3ccccc3C2=O)cc1	-4
O=C(Nc1ccc(N2CCCC2)c(Cl)c1)c1ccc([N+](=O)[O-])cc1	-1
CC(C)Cn1c(N)c(C(=O)COC(=O)CN2C(=O)C3CC=CCC3C2=O)c(=O)n(C)c1=O (stereo not given)	14
COc1ccc(CN2CCN(C(=O)C3CCC(CNS(=O)(=O)c4ccccc4)CC3)CC2)c(OC)c1OC (stereo not given)	11
O=C(O)c1cn(-c2ccccc2)nc1C(=O)O	-3
CC(C)NC(=O)NC(=O)COC(=O)c1ccc(S(=O)(=O)Nc2ccccc2)cc1	0
Cc1ccc(C(=O)N2CCSC2=S)cc1	23
N#CCCC1CCCC=C1N(Cc1ccccc1)C(=O)C(Cl)Cl (stereo not given)	19
O=C(NNC(=S)Nc1ccc(Cl)c(Cl)c1)c1ccccn1	30
Oc1cc2c(cc1O)[C@@H](c1ccccc1)CNCC2	8

# In the list so far, three contain a tert-butyl group.
canonical_smiles	Calb biofilm kill
CC(C)N(C(=O)COC(=O)[C@@H]1CC(O)CN1S(=O)(=O)c1ccc(C(C)(C)C)cc1)C(C)C (stereo not given in full)	13
CSc1nnc(C(C)(C)C)c(=O)n1/N=C/c1ccccc1	16
CC(C)(C)NC(=O)C(c1ccccc1)N(Cc1cccs1)C(=O)c1csnn1 (stereo not given)	-8
